RGS16-Gao: regulators of human RGS16-Galphao interaction; O15492+P09471; bead-based flow cytometry RGS16-Galphao binding, fluorescence; actives lie on both sides; binding response (% of control), % at 10 µM; 220,000 tested, 0.38% active;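 active = below 25% or above 175%, edge rows of some plates excepted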;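 also: Galphao activated by GDP with aluminum fluoride before binding; 100% = wells without compound and 0% = beads without RGS; some results beyond the cut were filed as inactive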
GALR2 agonist: agonists of human galanin receptor 2 (GALR2); 140,000 tested, 0.48% active; GALR2-expressing cells, agonist activation read-out; O43603; activation, %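 (tested at 5 µM)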;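 active = above mean plus 3 SD of all compounds, about 5% in these data, not always enough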;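 also: 0% = vehicle buffer wells and 100% = reference agonist at full effect; tested in CHO reporter cells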
PKD1 inh: inhibitors of human PKD1 kinase | inhibition, %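 (about 10 µM by stock and volumes)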 | PKD1 kinase fluorescence polarization assay | 200,000 tested, 0.056% active;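 active = inhibition of 50% or more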;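 also: controls were vehicle for no effect and a reference inhibitor for full effect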
Target sequence (Q15139 whole entry, looked up): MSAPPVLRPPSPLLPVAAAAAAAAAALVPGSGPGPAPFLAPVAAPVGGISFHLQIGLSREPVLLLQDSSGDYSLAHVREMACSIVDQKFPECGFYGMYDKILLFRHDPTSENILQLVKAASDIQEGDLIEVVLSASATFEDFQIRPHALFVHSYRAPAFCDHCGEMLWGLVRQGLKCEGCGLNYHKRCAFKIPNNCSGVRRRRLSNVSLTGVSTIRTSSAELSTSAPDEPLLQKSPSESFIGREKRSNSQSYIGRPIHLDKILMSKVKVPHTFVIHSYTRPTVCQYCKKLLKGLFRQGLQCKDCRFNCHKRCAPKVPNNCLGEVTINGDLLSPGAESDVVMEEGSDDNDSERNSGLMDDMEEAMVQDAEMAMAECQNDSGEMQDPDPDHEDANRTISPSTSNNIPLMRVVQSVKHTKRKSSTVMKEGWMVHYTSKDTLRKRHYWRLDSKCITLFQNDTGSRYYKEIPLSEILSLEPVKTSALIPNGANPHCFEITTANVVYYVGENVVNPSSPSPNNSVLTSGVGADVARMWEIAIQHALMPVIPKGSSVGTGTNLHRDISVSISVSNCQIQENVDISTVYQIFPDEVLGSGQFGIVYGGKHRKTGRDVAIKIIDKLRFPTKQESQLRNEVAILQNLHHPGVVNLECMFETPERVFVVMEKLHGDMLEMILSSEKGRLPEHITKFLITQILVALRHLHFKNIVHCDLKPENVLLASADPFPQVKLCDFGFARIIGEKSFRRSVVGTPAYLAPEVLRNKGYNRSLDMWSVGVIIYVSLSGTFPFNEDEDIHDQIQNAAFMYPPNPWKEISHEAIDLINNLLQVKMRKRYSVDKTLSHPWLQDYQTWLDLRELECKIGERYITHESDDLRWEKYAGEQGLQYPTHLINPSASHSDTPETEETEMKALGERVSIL
HSV augment: increases HSV replication in cells; HSV replication augmentation in cells, fold increase; maximum fold increase; 220,000 tested, 0.005% active; AID 1956;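 active = peak rise of 1.5-fold or more in the series; tested in PC3 cells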;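 also: first round at 10 µM; read as green reporter fluorescence; hits show the peak of a series up to 25 µM; 1 = signal of infected wells without compound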
INS promoter inh: TRM-6 insulin promoter activity inhibition; TRM-6 cells (human fetal islet line), insulin promoter-eGFP reporter, imaging; reporter expression induced with tamoxifen; inhibition, % at 2 µM; 130,000 tested, 0.9% active; AID 1273;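 active = inhibition above the mean plus 3 SD, with well images judged a real hit on visual review, cut at about 60% in these data, passing the limit was not always enough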
INS promoter inh cell count: also measured in INS promoter inh; calls as there; normalized cell count, %; measured here: cell count, toxicity; reference of the scale not given here;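 cells exposed to compound for 48 h; stained nuclei by imaging scaled within each plate; lower means fewer cells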
HSV augment primary fold: also measured in HSV augment; calls as there; fold increase; compound at 10 µM; measured here: primary screen fold increase 10 uM; tested in PC3 cells;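 GFP signal in the first replicate; 1 = infected wells without compound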
* = called active by the depositor; i = inactive; . = not tested or not shown.

canonical_smiles	RGS16-Gao	GALR2 agonist	PKD1 inh	HSV augment	HSV augment primary fold	INS promoter inh	INS promoter inh cell count
CCCCCOc1ccccc1C(=O)NCCC(=O)O	100	-2.5	-7	i	0.9	-47	140
COc1cc(OC)c(C(=O)CCCN2CCCC2)c(OC)c1	70	-1.7	2	i	0.63	-45	129
O=C(c1ccc(Cl)cc1)C1CCN(C(=O)N2CCOCC2)CC1	99	-1.5	-5	i	0.87	.	.
COc1cccc(CNC(=O)N[C@@H](C)C(=O)O)c1	102	.	.	i	1	.	.
COc1ccc(C(=O)/C=C/c2cccs2)c(OC(=O)c2cccc([N+](=O)[O-])c2)c1	100	-0.7	-21	i	1	.	.
O=C(c1cc2ccccc2oc1=O)N(Cc1cccs1)Cc1cccs1	87	-2.0	-7	i	0.88	-370	40
CCOc1ccccc1-c1nc(C(N)=O)c2[nH]c(=O)n(-c3ccc(F)cc3)c2n1	108	-1.2	-6	i	0.68	.	.
CC(C)[C@H](NC(=O)c1ccccc1)C(=O)OCc1nnc(-c2ccccc2)o1	104	.	6	i	0.93	67	80
COc1ccccc1/C=C/C(=C1/C(=O)N(c2ccccc2)N=C1C)c1ccc(C)cc1	99	-1.2	-9	i	0.94	71*	188*
O=C1CC(NCc2ccc3c(c2)OCO3)C(=O)N1Cc1ccc2c(c1)OCO2 (stereo unspecified)	102	-2.8	1	i	0.99	14	151
CN1C(=O)S/C(=C/c2ccccc2OCc2ccc(C(=O)O)cc2)C1=O	100	.	6	i	0.93	.	.
COc1ccccc1NC(=O)c1ccc(COc2ccc3c(c2)CCC3)cc1	105	-0.1	7	i	1	.	.
CCOC(=O)c1sc(Nc2ccccc2)nc1C	103	0.3	-5	i	0.82	-19	170
O=C(CN(C(=O)Cn1nnc(-c2ccc(F)cc2)n1)c1cnc2ccccc2c1)NCC1CCCO1 (stereo unspecified)	103	.	4	i	0.99	.	.
C=CCON1C(=O)c2ccccc2C1=O	92	-0.5	-8	i	1	25	190
COC(=O)c1sccc1NC(=O)c1cccs1	97	.	.	i	0.99	.	.
Clc1cccc(C[n+]2cc(-c3ccccc3)n3c2CCC3)c1	73	-0.6	0	i	1.1	22	96
NS(=O)(=O)c1ccc(CCNC(=O)CN2CCN(c3ccccc3F)CC2)cc1	104	0.1	-10	i	1.1	-33	112
Cc1nnc(SCC(=O)NC2CC2)n1CC1CCCO1 (stereo unspecified)	106	.	-3	i	0.74	.	.
Cc1cccc(Oc2ccc(NC(=O)c3ccccc3C(=O)O)cc2)c1C	96	.	-3	i	0.97	.	.
CCOC(=O)C1=C(C)N(CCO)C(=O)NC1c1ccccc1 (stereo unspecified)	94	-0.8	0	i	1	-21	118
Cc1cccn2cc(CNC(=O)c3ccco3)nc12	102	-1.6	-8	i	0.92	27	98
COc1ccc(C2=NN(C(=O)c3ccc(Cl)c([N+](=O)[O-])c3)C(c3ccccc3)C2)cc1 (stereo unspecified)	102	0.8	-2	i	0.7	-33	92
Cn1c(N)c(Br)c(-c2ccc(F)cc2)c(C#N)c1=O	99	.	-1	i	0.94	.	.
O=C(CCCCCCCCN1C(=O)c2ccccc2C1=O)N1CCOCC1	95	.	.	i	0.94	.	.
CC1CCN(CC(O)COCCOc2ccc(Br)cc2)CC1 (stereo unspecified)	98	-0.2	-9	i	0.99	.	.
CN(c1nnc(N)s1)C1CCCCC1	96	-0.5	-2	.	.	35	59
CO/N=C/c1ccc(N2CCN(C(=O)c3cccc(C(F)(F)F)c3)CC2)c([N+](=O)[O-])c1	105	-1.7	-5	i	0.99	.	.
COc1ccc(C(=O)Nc2ccc(Cc3ccncc3)cc2)cc1Br	104	.	4	i	0.92	15	114
CC/C(C)=N/N1C(=O)c2ccccc2NC1(C)CC (stereo unspecified)	94	.	-1	i	0.93	33	138
COc1ccc(OC)c(/C=C/C(=O)N(C)CC(=O)Nc2ccc(C)cc2)c1	108	-1.3	3	i	0.91	0	66
CCSCCOC(=O)C1=C(C)N(C)C(=O)NC1c1cc(OC)ccc1OC (stereo unspecified)	97	-1.9	-9	i	1	-35	43
Cc1csc(NC(=O)c2cc[n+]([O-])cc2)n1	38	.	2	i	0.93	.	.
NC(=O)N1c2ccccc2C=Cc2ccccc21	103	-1.0	-9	i	0.99	9	124
Cc1cc(C(=O)OCC(=O)Nc2nccs2)c2ccccc2n1	99	.	.	i	0.92	.	.
O=C(Nc1nccs1)c1cccc(S(=O)(=O)N2CCCCC2)c1	96	-0.6	3	i	0.94	-182	101
O=C(CSc1ccc2nnc(-c3ccccc3)n2n1)NCc1ccc2c(c1)OCO2	99	-2.6	-22	.	.	.	.
COc1ccc(-n2ncc3c(NC(C)C)ncnc32)cc1	96	0.2	9	i	0.89	.	.
CCOC(=O)C1(Cc2ccccc2)CCN(Cc2cc(OC)c3c(c2)OCO3)CC1	106	.	12	i	0.91	.	.
CCOc1ccc(S(=O)(=O)Nc2ccccc2C(=O)Nc2ccccc2N2CCOCC2)cc1	94	-0.7	-8	i	0.83	-169	21
Nc1nonc1-c1nc2ccccc2n1CC(=O)NC1CCCC1	101	-0.9	1	i	1.1	27	127
CCOc1ccc(C(=O)Nc2ccc(NC(=S)NC(=O)CC)cc2)cc1Cl	98	-0.6	11	i	1	.	.
Cc1n[nH]c(C)c1S(=O)(=O)N1CCCC(C(=O)NCc2ccccc2Cl)C1 (stereo unspecified)	72	-1.9	-12	i	0.96	-14	110
CCOC(=O)c1sc(NC(=S)NC(=O)c2ccccc2)c(C(=O)OCC)c1C	178	-0.3	3	i	1.1	21	68
COc1cc(NS(=O)(=O)c2ccc(N/C=C(\C#N)c3nc4ccccc4o3)cc2)nc(OC)n1	88	-3.5	1	i	0.78	4	107
COc1ccc(/C=N/NC(=S)Nc2ccccc2[N+](=O)[O-])cc1O	130	-0.9	-6	i	0.83	14	121
Cc1cc(C(=O)CSc2nnnn2C)c(C)n1CCc1ccc(Cl)cc1	104	-3.6	-10	i	1	7	108
Oc1[nH]c2ccccc2c1N=Nc1nncc2ccccc12	103	.	.	i	1.1	.	.
CN(C(=O)c1ccccc1)c1nc2ccccc2s1	111	0.6	10	i	0.93	.	.
CN1CCN(C(=O)/C=C/c2ccc(Cl)cc2)CC1	99	.	0	i	0.94	.	.
O=[N+]([O-])c1ccccc1Oc1ccc(C(F)(F)F)cn1	95	.	-9	i	1	25	111
CCOC(=O)c1ccc(NC(c2ccc(N(C)C)cc2)P(=O)(OC(C)C)OC(C)C)cc1 (stereo unspecified)	101	.	7	i	0.92	.	.
Cc1ccc2nc(SCC(=O)Nc3nonc3N)[nH]c2c1	101	.	4	i	0.96	57	126
COc1ccc(C(C#N)N2CCCCC2)cc1OC (stereo unspecified)	125	-0.8	-3	i	0.98	.	.
COc1ccc(/C=C/C(=O)NC(=S)Nc2ccc(C(=O)O)cc2)cc1	128	-0.2	-4	i	1	27	83
O=S(=O)(O)c1ccc(N=Nc2ccccc2)cc1	98	.	.	i	1.2	.	.
O=C(Nc1ccccc1)N1CCN(Cc2ccccc2)CC1	101	0.2	-4	i	0.89	-4	58
Cc1ccc(C2NS(=O)(=O)N=C2N)cc1 (stereo unspecified)	100	-0.5	-8	i	0.83	15	98
CN(C)/C=C(\C#N)C(=O)N/N=C/c1ccc(F)cc1	100	.	-2	.	.	-8	83
O=C(Nc1cccc(Cl)c1N1CCCCC1)c1ccc(N2CCOCC2)c([N+](=O)[O-])c1	107	-2.0	5	i	0.96	13	96

Continuation:
canonical_smiles	RGS16-Gao	GALR2 agonist	PKD1 inh	HSV augment	HSV augment primary fold	INS promoter inh	INS promoter inh cell count
CCCC(=O)N/C(N)=N/c1nc(C)c2cc(C)ccc2n1	100	.	.	i	0.74	.	.
CCOC(=O)c1cnc(SCC(=O)Nc2ccccc2C(=O)OC)nc1N	60	-0.8	-2	i	0.86	-110	101
CCN(CC)S(=O)(=O)c1cc(NC(=O)[C@@H](NC(N)=O)C(C)C)ccc1C	106	.	-4	i	0.98	.	.
CCCCN(CCCC)CCn1cnc2c([nH]c3ccc(OC)cc32)c1=O	158	-2.2	9	i	0.95	.	.
COc1ccccc1N1CCN(C(=O)CCCCCn2c(=O)[nH]c3ccsc3c2=O)CC1	108	.	4	i	0.82	-58	74
COc1ccc(/C=C2\SC(=S)N(c3cccnc3)C2=O)cc1	98	.	.	i	0.86	.	.
O=C(CCCC(=O)NCCc1ccccc1)NCCc1ccccc1	47	-1.4	2	i	0.99	-21	105
CC(=O)OC(C(=O)Nc1ccccc1)C(C)S(=O)(=O)c1ccccc1 (stereo unspecified)	71	-2.1	4	i	1.1	26	65
COc1ccccc1CNCc1cc(Br)ccc1OC	103	.	2	i	0.93	-50	121
CC(=O)N/N=C(\C)CC(=O)NC(C)(C)C	149	.	0	i	1	27	93
Cc1cc(C)c(C(N)=O)c(SCC(=O)c2ccc(Cl)cc2)n1	101	-3.6	-5	i	1.1	10	134
Nc1ccc(C23CC4CC(CC(C4)C2)C3)cc1	109	.	-3	i	0.99	.	.
O=C(NCCN1CCCCCC1)c1ccc(N2CCCC2=O)cc1	98	-0.2	-3	i	1.1	9	65
CCc1ccc(NC(=O)c2noc3c2CCCCC3)cc1	103	-0.8	6	.	.	.	.
Cc1ccc(C(=O)C(C)OC(=O)c2n[nH]c(=O)c3ccccc23)cc1 (stereo unspecified)	100	-2.0	-5	i	0.99	-14	108
O=C(c1ccccc1)c1c2c(cc3sc4ccccc4[n+]13)-c1cccc3cccc-2c13	93	-1.0	13	.	.	-233	45

Compounds shown so far with a Cl atom:
canonical_smiles	RGS16-Gao	GALR2 agonist	PKD1 inh	HSV augment	HSV augment primary fold	INS promoter inh	INS promoter inh cell count
O=C(c1ccc(Cl)cc1)C1CCN(C(=O)N2CCOCC2)CC1	99	-1.5	-5	i	0.87	.	.
Clc1cccc(C[n+]2cc(-c3ccccc3)n3c2CCC3)c1	73	-0.6	0	i	1.1	22	96
COc1ccc(C2=NN(C(=O)c3ccc(Cl)c([N+](=O)[O-])c3)C(c3ccccc3)C2)cc1 (stereo unspecified)	102	0.8	-2	i	0.7	-33	92
CCOc1ccc(C(=O)Nc2ccc(NC(=S)NC(=O)CC)cc2)cc1Cl	98	-0.6	11	i	1	.	.
Cc1n[nH]c(C)c1S(=O)(=O)N1CCCC(C(=O)NCc2ccccc2Cl)C1 (stereo unspecified)	72	-1.9	-12	i	0.96	-14	110
Cc1cc(C(=O)CSc2nnnn2C)c(C)n1CCc1ccc(Cl)cc1	104	-3.6	-10	i	1	7	108
CN1CCN(C(=O)/C=C/c2ccc(Cl)cc2)CC1	99	.	0	i	0.94	.	.
O=C(Nc1cccc(Cl)c1N1CCCCC1)c1ccc(N2CCOCC2)c([N+](=O)[O-])c1	107	-2.0	5	i	0.96	13	96
Cc1cc(C)c(C(N)=O)c(SCC(=O)c2ccc(Cl)cc2)n1	101	-3.6	-5	i	1.1	10	134

Reformatted with each value named: two of the compounds above.
O=[N+]([O-])c1ccccc1Oc1ccc(C(F)(F)F)cn1
  RGS16-Gao = 95
  GALR2 agonist = .
  PKD1 inh = -9
  HSV augment = i
  HSV augment primary fold = 1
  INS promoter inh = 25
  INS promoter inh cell count = 111

CCOC(=O)c1ccc(NC(c2ccc(N(C)C)cc2)P(=O)(OC(C)C)OC(C)C)cc1 (stereo unspecified)
  RGS16-Gao = 101
  GALR2 agonist = .
  PKD1 inh = 7
  HSV augment = i
  HSV augment primary fold = 0.92
  INS promoter inh = .
  INS promoter inh cell count = .

No enrichment for hits (roughly 1.1% active in at least one column).
